A488 autofl – qHTS Assay for Spectroscopic Profiling in A488 Spectral Region; compound autofluorescence, A488 spectral region, dye equivalency; hits give high values; 59,000 tested, 0.1% active; AID 591, 2007; max dye equivalency, M; active = above 10 nM dye equivalent; inconclusive = 1 to 10 nM; inactive = 1 nM or less; about half of its hits are not listed in these tables;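 note: highest value over a series up to 38 µM; compound alone in buffer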
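Intrinsic compound fluorescence is measured in 100 mM Tris buffer at pH 8.0 following 15 min incubation at room temperature. Intensities at 480 nm excitation/540 nm emission are calibrated to an on-plate A488 concentration series, giving dye-equivalent concentrations.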
TSHR agonist – qHTS Assay for Agonists of the Thyroid Stimulating Hormone Receptor; Thyrotropin receptor (Homo sapiens), P16473; HEK293-CNG-TSHR cells (CNG channel as cAMP sensor), membrane potential dye, cAMP; Potency, µM (top dose mostly 57.1 µM), inactives show at the highest dose activation, hits mostly activators; 73,000 tested, 0.48% active; active = well fitted activation curve of enough size with the parental cells flat; inconclusive = any curve in the parental cells; inactive = parental cells flat and receptor cells flat or falling; note: potency is the fitted concentration of half-maximal effect; % of control where 0% means no effect; weak receptor curves with flat parental cells got no call and are not listed
Target sequence (P16473 whole entry, looked up): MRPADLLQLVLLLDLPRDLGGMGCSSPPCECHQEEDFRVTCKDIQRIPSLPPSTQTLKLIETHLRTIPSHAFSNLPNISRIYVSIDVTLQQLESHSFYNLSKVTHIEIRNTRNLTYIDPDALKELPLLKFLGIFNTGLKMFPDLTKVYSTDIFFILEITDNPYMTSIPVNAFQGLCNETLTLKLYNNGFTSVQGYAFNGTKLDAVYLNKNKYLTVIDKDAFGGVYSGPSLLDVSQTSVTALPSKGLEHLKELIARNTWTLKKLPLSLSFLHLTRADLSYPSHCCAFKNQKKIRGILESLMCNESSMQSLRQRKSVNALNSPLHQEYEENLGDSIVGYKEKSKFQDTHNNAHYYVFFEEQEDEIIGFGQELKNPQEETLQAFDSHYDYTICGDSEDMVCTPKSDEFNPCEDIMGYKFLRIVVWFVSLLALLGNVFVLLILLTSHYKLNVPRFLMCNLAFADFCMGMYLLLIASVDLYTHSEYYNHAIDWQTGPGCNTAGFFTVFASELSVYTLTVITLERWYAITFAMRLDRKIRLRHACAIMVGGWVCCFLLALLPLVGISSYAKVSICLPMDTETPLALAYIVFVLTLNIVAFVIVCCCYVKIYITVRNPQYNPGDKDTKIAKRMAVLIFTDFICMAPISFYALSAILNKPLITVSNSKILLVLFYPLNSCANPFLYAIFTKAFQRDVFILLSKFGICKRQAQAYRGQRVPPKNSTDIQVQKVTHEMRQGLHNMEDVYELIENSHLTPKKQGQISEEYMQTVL
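HEK 293 cells stably expressing TSHR and a cAMP-gated CNG channel; parental CNG-only cells as counterscreen. Cells preloaded 60 min with membrane potential dye plus 100 uM RO 20-1724, then compound 30 min; fluorescence read at 590 nm.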
AID923 – qHTS Assay for Allosteric/Competitive Inhibitors of Caspase-1: Spectroscopic Profiling in AFC Spectral Region | compound fluorescence, AFC spectral region (405/520 nm); almost no hit is shown here | Potency, µM (doses to about 57.5 µM), without a hit: at the top dose fluorescence increase, most hits filed as activators | 75,000 tested, 1.1% active | AID 923, 2007; active = well fitted activation curve with a large enough effect; inconclusive = small, poorly fitted or top-dose-only effect;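 note: potency is the fitted concentration of half-maximal effect; 0% is about no effect; scaled to a free AFC standard on each plate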
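Baseline compound fluorescence (AFC region, 405 nm ex/520 nm em) taken from the intercept of kinetic reads with 50 nM caspase-1 and 5 uM Ac-WEHD-AFC; normalized to an on-plate AFC standard curve; compounds titrated up to 57 uM.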
Resorufin fluor – qHTS Assay for Spectroscopic Profiling in Resorufin Spectral Region; Compound fluorescence, resorufin region 547/598 nm, buffer; hits give high values; max dye-equivalent concentration, M; 59,000 tested, 0.04% active; AID 588, 2007; active = above 10 nM dye equivalent; inconclusive = 1 to 10 nM; inactive = 1 nM or less; a few of its hits are not listed in these tables; note: highest value over a series up to 38 µM
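Compounds in 100 mM Tris, pH 8.0, incubated 15 min at room temperature, then fluorescence read at 547 nm excitation/598 nm emission. Signal converted to dye-equivalent concentration via an on-plate six-point resorufin standard curve, per compound concentration.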
A647 fluor – qHTS Assay for Spectroscopic Profiling in A647 Spectral Region | max dye-equivalent concentration, M | AID 592, 2007 | Compound fluorescence, A647 channel (570/671 nm), Tris buffer | 59,000 tested, under 10 active; active means above 1 µM dye equivalent; inconclusive means 0.1 to 1 µM; inactive means 0.1 µM or less;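 note: values scaled relative to a standard on each plate; highest value over a series up to 38 µM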
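Tris 100 mM pH 8.0; cpd + A647 stds pin-transferred; 15 min RT; CCD imager, ex 570/em 671. Output = A647-equivalent conc. per cpd conc.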
The depositor's hits bear a star; i = inactive; ? = inconclusive; . = not tested or not shown; & = joins results of further samples; [ ] = another dose, or the depositor's remark. These rows are one share of the data; rates above refer to the full screens.

nr	Molecule	Resorufin fluor	A488 autofl	TSHR agonist	AID923	A647 fluor
1	COc1cc(S(=O)(=O)N2CCCCCC2)ccc1Cl	i	i	.	1.0%	1e-09
2	CC(=O)N=C1SC2CS(=O)(=O)CC2N1c1c(Cl)cccc1Cl (stereo not drawn)	.	.	9%	2.4%	.
3	CN(C)Cc1nsc(N(C)C)n1	i	i	-3%[11.4 µM]	9.2%[11.5 µM]	3.4e-08
4	C=CCn1c(SCC(=O)NCc2cccs2)nnc1C1CCCCC1	i	i	-2%[11.4 µM]	-0.6%	1e-09
5	COC(=O)CSc1ccc2c(N)c(C(=O)OC)sc2c1	i	i	-5%[11.4 µM]	1.4%	2.9e-08
6	CC1CCc2nn(CC(=O)NCCN3CCOCC3)cc2C1 (stereo not drawn)	.	.	13%	-0.6%	.
7	Cc1cccc(NC(=O)c2cccnc2)c1	.	.	-1%	0.7%	.
8	COc1ccc2[nH]cc(CCN=C3SCC(=O)N3C)c2c1	i	i	-7%	0.6%	1e-08
9	COc1ccc(C2/C(=C(/O)c3ccccc3)C(=O)C(=O)N2CCO)cc1 (stereo not drawn)	.	.	-4%	0.3%	.
10	CC1=CC(=C2C(=O)c3ccccc3C2=O)C=C(C)N1C	i	i	11%	1.1%	1e-09
11	CCN(CCNC(=O)CS(=O)(=O)Cc1nc(-c2cccc(OC)c2)oc1C)c1ccccc1	i	i	8%	-0.1%	5.3e-09
12	C#CC(C)(C)NC(=O)CSc1nc2c(c(=O)n(C)c(=O)n2C)n1CCCC	.	.	-1%[11.4 µM]	1.7%	.
13	CC(C)N(C(=O)NC(=O)NCC1CCCO1)S(C)(=O)=O (stereo not drawn)	i	i	-3%[11.4 µM]	-0.3%	1e-09
14	COc1ccc(OCCCC(=O)Nc2nnc(C3CCCO3)s2)cc1 (stereo not drawn)	i	i	-11%	0.3%	3.9e-08
15	O=C(Cn1c(=O)oc2cc(S(=O)(=O)N3CCc4ccccc43)ccc21)N1CCCCC1	.	.	-12%	2.4%	.
16	O=C(Nc1ccc([N+](=O)[O-])cc1Cl)c1cc(Cl)ccc1O	i	i	?	-0.5%	4.6e-08&2.3e-08
17	CCOCCn1c(=O)c2c(nc3n2CCN3c2ccc(C)cc2)n(C)c1=O	i	i	-3%	1.0%	2.8e-08
18	COC(=O)c1cc(NCc2cccs2)ccc1N1CCOCC1	i	i	-28%	-0.4%	2.8e-08
19	O=S(=O)(Nc1nc2ccccc2[nH]1)c1ccccc1	i	i	-1%	1.2%	7.5e-09
20	Cc1cc(NC(=O)CSc2nnc(CNc3ccc(F)cc3)n2C2CCCCC2)no1	i	i	11%	-0.4%	5.9e-09
21	CCOc1ccc(OCC)c(NC(=O)CSc2nc3cccnc3n2C)c1	i	i	?	0.6%	1e-09
22	COc1ccc(OC)c(N(CC(=O)O)S(=O)(=O)c2ccc(OC)c(OC)c2)c1	.	.	-3%	0.9%	.
23	Cc1ccc(N=Nc2c(O)c3ccccc3[nH]c2=O)c(S(=O)(=O)N(C)C)c1	i	i	3%[11.4 µM]	-1.2%[11.5 µM]	1.3e-08
24	Cc1ccccc1-c1nnc(SCC(=O)Nc2ccc3c(c2)OCCO3)n1N	i	i	4%	-0.4%	2.5e-08
25	Cc1noc(NS(=O)(=O)c2ccc(NC(=O)c3ccoc3C)cc2)c1C	i	i	-1%	-0.6%	6.2e-09

Next compounds
nr	Molecule	Resorufin fluor	A488 autofl	TSHR agonist	AID923	A647 fluor
26	COc1ccc(N2C(=O)CSC2c2cccc(F)c2)c(OC)c1 (stereo not drawn)	i	i	7%	1.0%	2.3e-09
27	O=C1OCCC1N1C(=O)c2ccccc2S1(=O)=O (stereo not drawn)	i	i	.	0.0%	1.7e-08
28	O=C(NC(=O)c1cccc(F)c1)OC[C@@H]1CCCN2CCCC[C@H]12	.	.	-4%	-0.2%	.
29	CCn1c(SCC(N)=O)nc2c1c(=O)n(C)c(=O)n2C	i	i	0%	-1.2%	1.5e-08
30	O=C(NCCN1C(=O)C2C3C=CC(C3)C2C1=O)Nc1ccc(Br)cc1 (stereo not drawn)	.	.	-1%	-1.6%	.
31	O=C(COC(=O)c1cn(-c2ccccc2)nc1-c1cccs1)NC1CC1	i	i	?	1.5%	1e-09
32	CCCNC(=O)C1CCN(c2nc(C)cc(C)n2)CC1	i	i	-1%	1.7%	1e-09
33	O=C(c1ccccc1NS(=O)(=O)c1cccs1)N1CCCC1	i	i	-1%	-0.6%	3.2e-08
34	COc1ccc(NC(=S)Nc2ccccc2)cc1	i	i	2%[11.4 µM]	0.0%[11.5 µM]	1e-09
35	NC(=O)c1cc(Cc2ccccc2)sc1NC(=O)c1ccco1	.	.	-1%	-1.8%	.
36	C=CCn1cnc2c(c1=O)c1nc3ccccc3nc1n2/N=C/c1cccc(OC)c1OC	i	i	-6%	-2.3%	3.4e-09
37	O=C(c1oc(=O)c2ccccc2c1-c1ccccc1)N1CCN(C2CCCCC2)CC1	.	.	15%	-2.5%	.
38	CCOC(=O)N1CCC2(CC1)C(C#N)=C(N)Oc1n[nH]c(CSc3ccc(C)cc3)c12	i	i	?	-1.7%	1e-09
39	COc1ccccc1C(=O)NCCCN1CCCC1=O	i	i	-10%	-0.7%	1.5e-08
40	O=C1OC(=O)c2ccccc21	.	.	-3%	-0.8%	.
41	CC(=O)C1=C(C)Nc2ncnn2C1c1ccc(Cl)cc1Cl (stereo not drawn)	i	i	11%	1.0%	6.5e-09
42	COC(=O)c1ccccc1NC(=O)CSc1nnc(-c2ccoc2C)n1C	i	i	?	-0.3%	3.7e-09
43	Cn1cccc1C(=O)Nc1nc(-c2ccccn2)cs1	i	i	?	0.9%	1e-09
44	COC(=O)C/C=C\[C@@H](C)[C@@H](/C=N\O[C@@H]1O[C@H](COC(C)=O)[C@H](OC(C)=O)[C@H](OC(C)=O)[C@H]1OC(C)=O)OC	.	.	20%[11.4 µM]	-1.1%[11.5 µM]	.
45	CCN(CC)C(=O)c1cn(C)c(=O)c2cc(OC)c(OC)cc12	i	i	3%	0.0%	3.1e-08
46	Cc1nnc(SC(C)C(=O)Nc2ccc(S(=O)(=O)N3CCCCC3)cc2)s1 (stereo not drawn)	i	i	8%	0.8%	3.9e-08
47	Cc1cc(NC(=O)CN2CCCC2c2nc3ccccc3s2)no1 (stereo not drawn)	i	i	3%	0.4%	1.2e-08
48	Cc1ccnc(NC(=O)CN(C)S(=O)(=O)c2cccc3nsnc23)c1	i	i	-6%	-2.4%	1e-09
49	COc1cccc(C(c2nnnn2Cc2ccccc2)N2CCN(C(=O)c3ccco3)CC2)c1OC (stereo not drawn)	i	i	25µM*	-2.5%	1.6e-08
50	COc1ccc(-c2cnn(-c3ccccc3)c2N)cc1OC	.	.	-12%[11.4 µM]	-1.4%	.

Record cards (already shown). Order of values: Resorufin fluor, A488 autofl, TSHR agonist, AID923, A647 fluor
CCOc1ccc(OCC)c(NC(=O)CSc2nc3cccnc3n2C)c1 across the screens: i, i, ?, 0.6%, 1e-09
O=C(Nc1ccc([N+](=O)[O-])cc1Cl)c1cc(Cl)ccc1O across the screens: i, i, ?, -0.5%, 4.6e-08&2.3e-08
Cc1noc(NS(=O)(=O)c2ccc(NC(=O)c3ccoc3C)cc2)c1C across the screens: i, i, -1%, -0.6%, 6.2e-09
O=C(NCCN1C(=O)C2C3C=CC(C3)C2C1=O)Nc1ccc(Br)cc1 (stereo not drawn) across the screens: ., ., -1%, -1.6%, .

New compounds follow
nr	Molecule	Resorufin fluor	A488 autofl	TSHR agonist	AID923	A647 fluor
51	O=C(NCCC(=O)N1CCNC1=O)OCc1ccccc1	i	i	1%	-1.2%	1.2e-09
52	CCCCn1nnnc1NCc1cc(OC)c(OC)cc1OC	i	i	13%	0.8%	5.3e-09
53	COc1cccc(OCc2nc3ccccc3c(=O)n2N)c1	i	i	14%	-0.2%	1e-09
54	COc1cccc(-c2nccc(NCc3ccc(OC)cc3OC)n2)c1	i	i	?	3.9%	1.6e-08
55	N#C/C(=C\c1ccc(O)c(O)c1)C(=O)NCCCCc1ccccc1	.	.	-5%	-1.5%	.
56	CC(=O)Cc1nsc(NC(=O)c2c(-c3ccccc3Cl)noc2C)n1	i	i	-1%	-1.6%	1e-09
57	Cc1ccccc1C(=O)c1ccc2c(c1)n(C)c(=O)n2C	i	i	.	.	8.3e-08
58	COC(=O)c1c(NC(=O)c2cccs2)sc2c1CCC(C)C2 (stereo not drawn)	i	i	5%	3.0%	3.5e-09
59	O=C(CS(=O)(=O)c1ccccc1)Nc1nc(-c2ccccc2)cs1	i	i	-11%	-2.7%	3.5e-08
60	CCOc1ccccc1OCCCCCc1c(C)n[nH]c1C	i	i	19%	-0.3%	1e-09
61	CCOC(=O)N1CCC(NC(=O)c2ccc(NC(=O)C3CCCO3)cc2)CC1 (stereo not drawn)	i	i	0%	1.7%	1.2e-08
62	CCc1c(C(=O)Nc2ccncc2)csc1C	i	i	17%	-2.5%	2.8e-08
63	COc1ccc(S(=O)(=O)Nc2nncs2)cc1	i	i	?	2.7%	1.6e-08
64	O=C(NCc1ccccc1)C1C2C=CC3(CN(Cc4cccnc4)C(=O)C13)O2 (stereo not drawn)	i	i	1%	-0.6%	9.3e-09
65	COc1cccc(-c2ccc3ncnc(NCCN4CCOCC4)c3c2)c1	i	i	14%	5.3%	2e-08
66	CCOC(=O)CSc1nnc(CNC(=O)c2cccs2)n1-c1cc(C)ccc1C	i	i	7%	0.1%	3e-08
67	Nc1nonc1-c1noc(CCCCCN2C(=O)c3ccccc3C2=O)n1	i	i	?	-1.6%	6.6e-09
68	COc1ccc(OC)c(C(=O)CSc2nnc(Cc3cccs3)n2C)c1	i	i	23%	1.4%	1e-08
69	Cn1c(C(=O)Nc2ccc3c(c2)OCCO3)cc2sccc21	i	i	13%	0.2%	2.9e-09
70	CCOC(=O)CC1=C(C(=O)OCC)C(c2ccc(C)o2)C(C#N)=C(N)O1 (stereo not drawn)	i	i	6%[11.4 µM]	5.8%	3.6e-08
71	CC(C)=C[C@H]1[C@@H](C(=O)Oc2ccccc2C(C)C)C1(C)C	i	i	?	-3.0%[11.5 µM]	1.2e-08
72	O=C(CCCn1c(=O)c2sccc2n(CC(=O)OCc2ccccc2)c1=O)NCc1ccco1	i	i	5%	1.4%	9.7e-09
73	COc1ccccc1-c1c(C#N)c(SCC(=O)N2CCCC2)nc(C)c1C(N)=O	i	i	1%	0.2%	1e-09
74	Cc1noc(C(=O)N2CC3(C)CC2CC(C)(C)C3)c1Cl (stereo not drawn)	.	.	29%	-2.7%	.
75	O=S(=O)(c1cccs1)N1CCN(CC(O)COC2CCCc3ccccc32)CC1 (stereo not drawn)	i	i	-5%	-0.2%	3.4e-09

(listing goes on)
nr	Molecule	Resorufin fluor	A488 autofl	TSHR agonist	AID923	A647 fluor
76	O=C(NCCCc1ccccc1)c1ccccc1O	.	.	?	0.7%	.
77	O=C(NCCCN1CCCC1=O)c1cncc(Br)c1	i	i	-3%	-0.8%	8.3e-09
78	Cc1cccc(CN2CCN(c3ccccn3)CC2)c1	.	.	8%	0.4%	.
79	O=S(=O)(NCC(c1cccnc1)N1CCN(c2ccc(F)cc2)CC1)c1ccccc1 (stereo not drawn)	i	i	1%	0.9%	4.4e-09
80	CO[C@@H]1COC(=O)[C@@H](CCSC)NC(=O)C/C=C\[C@@H](C)COC(=O)CCC[C@H]1C	.	.	25%[11.4 µM]	-2.2%[11.5 µM]	.
81	CCOC(=O)N1CCc2c(sc(NC(=O)c3ccc(Cl)s3)c2C(N)=O)C1	.	.	-8%	3.8%	.
82	O=C(c1ccc(N2CCCCS2(=O)=O)cc1)N1CCN(c2ccc(N3CCOCC3)nn2)CC1	.	.	-10%	21%	.

Bioassay records as filed in PubChem BioAssay.
